# Dyrk1A ADPGlo – Dyrk1A (rat) kinase inhibition; Q63470; ADP-Glo luminescence, NFATc1 peptide; inhibition, % at 12.5 µM; 310,000 compounds, 0.43% hits; in the data active = inhibition above about 50%;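 also: plate controls were vehicle with enzyme for no effect and no enzyme for full effect; many of its hits are not listed in these tables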
# KCNQ1 inh – inhibitors of human KCNQ1 potassium channel. P51787. CHO-K1 KCNQ1, FluxOR thallium flux fluorescence; active compounds read high. B-score at 10 µM. 310,000 compounds, 1.3% hits;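 active = compounds whose thallium flux B-score, printed positive for inhibition, exceeds three library SD while starting fluorescence stays within three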;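 also: channel opened by potassium depolarization with thallium stimulus after 20 min compound exposure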
# GSK3beta inhib – blocks human GSK3beta kinase activity. activity score (negative = inhibition), % at 10 µM. AID 2097. GST-GSK3beta kinase, ADP-Glo luminescence, 60 min; active compounds read low. 300,000 compounds, 0.038% hits;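 active = more than half of replicate wells score below -50%, meaning over 50% inhibition versus plate controls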;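 also: 0% = median DMSO wells and -100% = median GW8510 positive control wells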
#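 test system = GST-tagged human GSK3beta kinase, cell-free | reagent = 25 µM ATP with peptide substrate | dosing = one dose of 10 µM per compound | schedule = 60 min reaction, RT | detection = luminescent ADP-Glo measurement of ADP formed | control set = DMSO neutral wells and GW8510 at 20 µM as positive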
# GSK3 alpha inh – inhibitors of human GSK-3 alpha kinase; P49840; ADP-Glo luminescence, 60 min; inhibition, % at 10 µM; 320,000 compounds, 0.1% hits; AID 2650;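 in the data active = inhibition above about 50%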;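 also: GST-tagged GSK-3 alpha with peptide substrate and 25 µM ATP; 0% = DMSO neutral wells and 100% = GW8510 positive control wells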
# RGS4 pot – potentiators or activators of RGS4; AID 463111; 310,000 compounds, 0.92% hits; HEK293 M3R/inducible RGS4, carbachol calcium flux Fluo4; active compounds read low; B-score at 10 µM;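 active = B-score of the integrated calcium signal more than 4 SD below the library mean, with starting fluorescence not abnormally high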;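 also: negative B-score means reduced calcium response which marks RGS4 activation or potentiation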
#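 Reagent: ECmax carbachol challenge; Test system: M3R-expressing HEK293 line, RGS4 induced by doxycycline; Schedule: overnight RGS4 induction, 30 min dye load 37 °C, 20 min compound RT; Detection: calcium dye Fluo4 fluorescence; Read-out: Agonist-evoked peak-minus-minimum fluorescence over baseline, integrated ratio, B score.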
# RGS4 inh – human RGS4 inhibition; B-score at 10 µM; HEK293 M3R/RGS4 inducible, Fluo-4 calcium flux; active compounds read high; triggered by carbachol at its EC20; 310,000 compounds, 0.45% hits; P49798;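 active = B-score, a plate-corrected calcium signal, over three deviations above library mean, with baseline fluorescence within five deviations of library mean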;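 also: RGS4 expression induced by doxycycline in cells with stable M3 receptor; B-score is computed from the integrated fluorescence ratio over baseline after carbachol; higher B-score means a larger calcium signal and so more RGS4 inhibition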
# Target sequence (P49798 whole entry, looked up): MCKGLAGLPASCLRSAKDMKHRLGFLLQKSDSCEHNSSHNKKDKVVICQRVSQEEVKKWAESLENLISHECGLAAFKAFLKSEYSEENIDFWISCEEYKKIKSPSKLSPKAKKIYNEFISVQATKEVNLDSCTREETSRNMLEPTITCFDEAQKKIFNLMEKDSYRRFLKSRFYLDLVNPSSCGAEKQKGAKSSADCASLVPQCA
# * marks the source's active call; other numbers are inactive results; i = inactive; · = no result given. The list is partial; rates above refer to the full screens.
entry	structure	Dyrk1A ADPGlo	RGS4 inh	RGS4 pot
1	Cc1cccc(N2C(N)=C(C#N)C(C#N)(C#N)C2c2ccccc2)c1 (centres undefined)	0.0	i	i
2	N#CCCn1c(SCC(=O)NCCc2ccc(F)cc2)nc2ccccc21	2.2	i	i
3	CCOC(=O)C1=C(CSc2nc(-c3ccccc3)ccc2C#N)OC(N)=C(C#N)C1c1ccc(OC)cc1 (centres undefined)	0.7	i	i
4	Cc1ccc(Cl)c(OCC(=O)NC2CCN(Cc3ccccc3)CC2)c1	13.3	i	i
5	COC(=O)c1cc(C(=O)N2CCN(c3cccc(C)c3C)CC2)cc([N+](=O)[O-])c1	2.5	i	i
6	COc1cc(/C=C2/SC(=S)N(Cc3ccccc3)C2=O)cc(OC)c1O	-0.7	i	i
7	COc1ccc(OC)c(Nc2nc(NCCO)c3ccccc3n2)c1	-1.0	i	i
8	O=C(c1ccc(Br)o1)N1N=C(c2ccc(Cl)cc2)CC1c1ccco1 (centres undefined)	-2.8	i	i

entry	GSK3beta inhib	KCNQ1 inh	GSK3 alpha inh
1	-1.3	i	1.7
2	0.4	i	-2.7
3	4.2	6*	-1.5
4	3.3	i	-3.5
5	0.4	i	-1.1
6	-4.2	i	4.1
7	1.9	i	5.0
8	0.8	i	-0.9

# (further entries)
entry	structure	Dyrk1A ADPGlo	RGS4 inh	RGS4 pot
9	Cc1cc(Cl)ccc1C(=O)C1CCCN(C(=O)c2snnc2C)C1 (centres undefined)	-3.4	i	i
10	COc1ccc(Cl)cc1NC(=O)CNC(c1ccccc1)c1ccccc1	-8.3	i	i
11	COc1cccc(C(=O)Oc2cc(N)n(S(=O)(=O)c3ccc(C)cc3)n2)c1OC	7.5	i	i
12	Cc1c(NS(=O)(=O)c2ccccc2)cc(Cl)c(O)c1C	10.4	i	i
13	N#C/C(=C\c1ccc([N+](=O)[O-])o1)c1nc2ccccc2[nH]1	·	i	i
14	COc1cc(C2CC(=O)Oc3c(C(CCN4CCOCC4)c4ccc(N(C)C)cc4)c(OC)cc(OC)c32)cc(OC)c1OC (centres undefined)	9.3	i	i
15	NC(N)=N/N=C/c1ccc(Cl)cc1Cl	·	i	i
16	COc1cc(OC)cc(-c2nnc(SCC(=O)N(Cc3ccccc3)C(C)(C)C)o2)c1	-5.6	i	i

entry	GSK3beta inhib	KCNQ1 inh	GSK3 alpha inh
9	-2.9	i	-3.7
10	3.3	i	-0.6
11	0.9	i	-2.6
12	1.2	i	-1.5
13	-5.0	6*	-3.9
14	3.8	i	-2.3
15	-1.8	i	1.2
16	-0.6	i	-4.3

# Filtered by structure, the entries above containing an aryl methoxy group
entry	structure	Dyrk1A ADPGlo	RGS4 inh	RGS4 pot
3	CCOC(=O)C1=C(CSc2nc(-c3ccccc3)ccc2C#N)OC(N)=C(C#N)C1c1ccc(OC)cc1 (centres undefined)	0.7	i	i
6	COc1cc(/C=C2/SC(=S)N(Cc3ccccc3)C2=O)cc(OC)c1O	-0.7	i	i
7	COc1ccc(OC)c(Nc2nc(NCCO)c3ccccc3n2)c1	-1.0	i	i
10	COc1ccc(Cl)cc1NC(=O)CNC(c1ccccc1)c1ccccc1	-8.3	i	i
11	COc1cccc(C(=O)Oc2cc(N)n(S(=O)(=O)c3ccc(C)cc3)n2)c1OC	7.5	i	i
14	COc1cc(C2CC(=O)Oc3c(C(CCN4CCOCC4)c4ccc(N(C)C)cc4)c(OC)cc(OC)c32)cc(OC)c1OC (centres undefined)	9.3	i	i
16	COc1cc(OC)cc(-c2nnc(SCC(=O)N(Cc3ccccc3)C(C)(C)C)o2)c1	-5.6	i	i

entry	GSK3beta inhib	KCNQ1 inh	GSK3 alpha inh
3	4.2	6*	-1.5
6	-4.2	i	4.1
7	1.9	i	5.0
10	3.3	i	-0.6
11	0.9	i	-2.6
14	3.8	i	-2.3
16	-0.6	i	-4.3
